Screening data as filed in PubChem.
FGF22 binding = shifts melting point of recombinant human FGF22; recombinant FGF22 thermal shift, SYPRO orange fluorescence; percent of sucrose octasulfate shift, DMSO zero; calls only at 9.99 µM; Q9HCT0; actives 1.5% (n = 340,000);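 active means melting point raised past a set limit in the mean and every replicate; inconclusive means no clear call; three in four hits are not shown here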
Target sequence (Q9HCT0 whole entry, looked up): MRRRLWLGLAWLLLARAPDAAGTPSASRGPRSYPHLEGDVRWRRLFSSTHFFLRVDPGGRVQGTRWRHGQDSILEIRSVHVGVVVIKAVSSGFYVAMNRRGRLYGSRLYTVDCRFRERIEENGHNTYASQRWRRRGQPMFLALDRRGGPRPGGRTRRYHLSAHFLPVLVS
AF4-AF9 inh = MLL-AF4/AF9 protein interaction inhibition; P42568; AlphaScreen, biotin-AF4 peptide binding to FLAG-AF9; inhibition, % at 10 µM; actives 0.47% (n = 350,000); AID 651704;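 active means every replicate reaching a set inhibition limit, whatever the replicate mean, cut at about 25% in these data; inconclusive means mean inhibition reaches that limit but some replicates miss it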;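 further: 0% = plate neutral control median and 100% = total signal loss; the record names both 10 and 1 µM as test concentration; the first replicate is given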
Target sequence (P42568 whole entry, looked up): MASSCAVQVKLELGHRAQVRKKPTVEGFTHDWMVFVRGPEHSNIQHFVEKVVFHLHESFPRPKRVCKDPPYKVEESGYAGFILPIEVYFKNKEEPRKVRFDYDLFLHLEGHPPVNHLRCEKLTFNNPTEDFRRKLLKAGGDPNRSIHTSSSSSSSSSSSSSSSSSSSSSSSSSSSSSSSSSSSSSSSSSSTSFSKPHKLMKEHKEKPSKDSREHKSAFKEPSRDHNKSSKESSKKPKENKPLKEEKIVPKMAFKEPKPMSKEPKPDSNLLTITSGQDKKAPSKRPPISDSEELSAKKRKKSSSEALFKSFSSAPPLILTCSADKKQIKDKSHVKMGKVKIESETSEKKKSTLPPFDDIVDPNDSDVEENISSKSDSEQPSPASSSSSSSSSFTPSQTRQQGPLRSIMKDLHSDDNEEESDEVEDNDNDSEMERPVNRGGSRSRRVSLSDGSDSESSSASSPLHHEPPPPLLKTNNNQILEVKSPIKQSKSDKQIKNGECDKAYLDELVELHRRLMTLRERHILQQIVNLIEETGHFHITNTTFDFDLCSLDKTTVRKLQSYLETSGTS
An asterisk follows results filed as active. A portion of the library (hit frequency here may not be typical).

What do the screens show for `C[C@@H]1CN([C@H](C)CO)C(=O)c2cc(NS(=O)(=O)c3cn(C)cn3)ccc2O[C@H]1CN(C)C(=O)Nc1ccc(C(F)(F)F)cc1`?
FGF22 binding: inactive; AF4-AF9 inh: 0.2

Results for C[C@@H]1CN([C@@H](C)CO)C(=O)Cc2cc(NC(=O)Nc3ccc(F)cc3)ccc2O[C@H]1CN(C)Cc1ccc(C(=O)O)cc1 ?
FGF22 binding: inactive; AF4-AF9 inh: -1.1

How did C[C@H](CO)N1C[C@H](C)[C@H](CN(C)C(=O)Nc2ccccc2)Oc2ccc(NC(=O)Nc3ccc(F)cc3)cc2CC1=O do in these assays?
FGF22 binding: inactive; AF4-AF9 inh: 6.2

Results for C[C@@H]1CCCCO[C@@H](CN(C)C(=O)Nc2cccc3ccccc23)[C@H](C)CN([C@H](C)CO)C(=O)c2cc(NC(=O)C3CCCCC3)ccc2O1 ?
FGF22 binding: inactive; AF4-AF9 inh: -5.0

Results for COCC(=O)N1C[C@@H]2[C@H](c3ccccc31)[C@H](CO)N2Cc1ccc(OC)cc1 ?
FGF22 binding: inactive; AF4-AF9 inh: 0.0

Results for COc1ccccc1C(=O)Nc1ccc2c(c1)C(=O)N(C)[C@@H]1CC[C@@H](CC(=O)NCCc3ccncc3)O[C@H]1CO2 ?
FGF22 binding: inactive; AF4-AF9 inh: -0.7

Results for C[C@H](CO)N1C[C@H](C)[C@@H](CN(C)C(=O)CCCN(C)C)OCCCC[C@H](C)Oc2ccc(NC(=O)Cc3ccccc3)cc2C1=O ?
FGF22 binding: inactive; AF4-AF9 inh: -3.7

What do the screens show for `C[C@@H]1CN([C@@H](C)CO)C(=O)c2cc(-c3cccnc3)cnc2O[C@@H]1CN(C)C`?
FGF22 binding: inactive; AF4-AF9 inh: -4.2

How did COc1ccc(S(=O)(=O)N(C)C[C@@H]2OCCCC[C@H](C)Oc3ccc(N(C)C)cc3C(=O)N([C@H](C)CO)C[C@@H]2C)cc1 do in these assays?
FGF22 binding: inactive; AF4-AF9 inh: 9.2

How did C[C@H](CO)N1C[C@H](C)[C@@H](CN(C)Cc2ccncc2)Oc2ccc(NS(=O)(=O)c3ccc(F)cc3)cc2C1=O do in these assays?
FGF22 binding: inactive; AF4-AF9 inh: 0.8

Results for COc1ccc(-c2ccc([C@@H]3[C@H]4CN(C(=O)NC(C)C)CCCCN4[C@H]3CO)cc2)cc1 ?
FGF22 binding: inactive; AF4-AF9 inh: -2.4

What do the screens show for `Cc1ccc(S(=O)(=O)N(C)C[C@@H]2Oc3ccc(NS(C)(=O)=O)cc3C(=O)N([C@H](C)CO)C[C@H]2C)cc1`?
FGF22 binding: inactive; AF4-AF9 inh: -1.7

How did CC(C)CC#Cc1ccc2c(c1)O[C@@H](CN(C)Cc1cccnc1)[C@@H](C)CN([C@@H](C)CO)S2(=O)=O do in these assays?
FGF22 binding: inactive; AF4-AF9 inh: 11

Results for COc1ccccc1-c1ccc2n(c1=O)C[C@H]1[C@H](CO)[C@@H](C(=O)O)N(C(=O)c3cccnc3)[C@@H]21 ?
FGF22 binding: inactive; AF4-AF9 inh: 0.4

What do the screens show for `CO[C@@H]1CN(C)C(=O)c2cc(NS(=O)(=O)Cc3ccccc3)ccc2OC[C@@H](C)NC[C@@H]1C`?
FGF22 binding: inactive; AF4-AF9 inh: 2.3

How did Cc1noc(C)c1S(=O)(=O)N(C)C[C@H]1Oc2ccc(NS(=O)(=O)c3ccc(Cl)cc3)cc2CC(=O)N([C@@H](C)CO)C[C@@H]1C do in these assays?
FGF22 binding: inactive; AF4-AF9 inh: 3.2

What do the screens show for `Cc1noc(C)c1S(=O)(=O)N(C)C[C@@H]1OCCCC[C@@H](C)Oc2ccc(NS(=O)(=O)c3ccccc3)cc2C(=O)N([C@H](C)CO)C[C@H]1C`?
FGF22 binding: inactive; AF4-AF9 inh: -1.4

How did C[C@@H]1CN([C@H](C)CO)C(=O)c2cc(NS(=O)(=O)c3cccs3)ccc2O[C@@H]1CN(C)CC1CCCCC1 do in these assays?
FGF22 binding: inactive; AF4-AF9 inh: -1.3

Results for CO[C@H]1CN(C)C(=O)c2cc(NS(C)(=O)=O)ccc2OC[C@H](C)N(C)C[C@H]1C ?
FGF22 binding: inactive; AF4-AF9 inh: -3.4

What do the screens show for `O=C(O)C[C@H]1C=C[C@@H](NC(=O)c2ccccc2F)[C@H](CO)O1`?
FGF22 binding: inactive; AF4-AF9 inh: 1.4

What do the screens show for `CO[C@H]1CN(C)C(=O)c2ccc(NS(=O)(=O)c3ccc(Cl)cc3)cc2OC[C@H](C)N(C)C[C@@H]1C`?
FGF22 binding: inactive; AF4-AF9 inh: -23

What do the screens show for `CO[C@@H]1CN(C)C(=O)c2ccc(NC(=O)NC(C)C)cc2OC[C@H](C)N(Cc2ccc(-c3ccccn3)cc2)C[C@H]1C`?
FGF22 binding: inactive; AF4-AF9 inh: 1.1

Results for O=C(C[C@H]1C[C@H]2c3cc(NC(=O)Nc4ccccc4F)ccc3O[C@H]2[C@@H](CO)O1)NCc1ccncc1 ?
FGF22 binding: inactive; AF4-AF9 inh: 0.6

How did N#C[C@@H]1[C@H](c2ccccc2)[C@@H](CO)N1C(=O)c1ccccc1F do in these assays?
FGF22 binding: inactive; AF4-AF9 inh: -0.7

How did CO[C@H]1CN(C)C(=O)c2cc(NC(=O)Nc3c(C)noc3C)ccc2OC[C@H](C)N(CCC(F)(F)F)C[C@@H]1C do in these assays?
FGF22 binding: inactive; AF4-AF9 inh: 4.6

What do the screens show for `C[C@H](O)C#Cc1ccc([C@H]2[C@H]3CN(CC4CC4)CCCCN3[C@H]2CO)cc1`?
FGF22 binding: inactive; AF4-AF9 inh: 4.4

Results for Cc1ccc(S(=O)(=O)N(C)C[C@@H]2Oc3cc(Br)ccc3S(=O)(=O)N([C@H](C)CO)C[C@H]2C)cc1 ?
FGF22 binding: inactive; AF4-AF9 inh: -0.9

How did Cc1noc(C)c1NC(=O)N(C)C[C@@H]1Oc2c(NC(=O)c3ccc(-c4nccs4)cc3)cccc2C(=O)N([C@@H](C)CO)C[C@H]1C do in these assays?
FGF22 binding: inactive; AF4-AF9 inh: -3.1

What do the screens show for `C=CCN1Cc2ccccc2[C@H]2OC(c3ccc(OCCCO)cc3)=N[C@@]2(CCS(=O)(=O)c2ccccc2)C1=O`?
FGF22 binding: inactive; AF4-AF9 inh: -4.4

What do the screens show for `Cc1noc(C)c1S(=O)(=O)Nc1ccc2c(c1)C(=O)N([C@H](C)CO)C[C@@H](C)[C@H](CN(C)C(=O)Nc1ccc(F)cc1)OCCCC[C@@H](C)O2`?
FGF22 binding: inactive; AF4-AF9 inh: -2.5

How did C[C@@H]1CN([C@H](C)CO)C(=O)c2cc(NC(=O)Cn3cnnn3)ccc2O[C@@H]1CN(C)C(=O)Nc1ccc(F)cc1 do in these assays?
FGF22 binding: inactive; AF4-AF9 inh: 0.2

Results for CC(C)NC(=O)Nc1ccc2c(c1)C(=O)N([C@H](C)CO)C[C@H](C)[C@H](CN(C)S(=O)(=O)c1ccccc1)OCCCC[C@@H](C)O2 ?
FGF22 binding: inactive; AF4-AF9 inh: -0.5

Results for CCC(=O)Nc1ccc2c(c1)C(=O)N(C)[C@H]1CC[C@@H](CC(=O)NCC3CCCCC3)O[C@@H]1CO2 ?
FGF22 binding: inactive; AF4-AF9 inh: -0.9

How did Cc1ccccc1-c1ccc([C@H]2[C@@H](CO)N3CCCCN(C(=O)c4cccnc4)C[C@H]23)cc1 do in these assays?
FGF22 binding: inactive; AF4-AF9 inh: 1.8

What do the screens show for `C[C@H](CO)N1C[C@H](C)[C@H](CN(C)C)Oc2cc(C#C[C@@H](C)O)ccc2S1(=O)=O`?
FGF22 binding: inactive; AF4-AF9 inh: -4.6

Results for CCOC(=O)C1=CCN(S(=O)(=O)c2cccc(Cl)c2)C1c1ccc(Cl)c(Cl)c1 (stereo not given) ?
FGF22 binding: inactive; AF4-AF9 inh: -2.9

How did COc1ccccc1NC(=O)N(C)C[C@H]1OCc2ccccc2-c2c(n(C)c3ccccc23)C(=O)N([C@@H](C)CO)C[C@@H]1C do in these assays?
FGF22 binding: inactive; AF4-AF9 inh: 7.0

What do the screens show for `CCS(=O)(=O)Nc1ccc2c(c1)C(=O)N(C)C[C@@H](OC)[C@H](C)CN(C(=O)CN(C)C)[C@@H](C)CO2`?
FGF22 binding: inactive; AF4-AF9 inh: -0.8

What do the screens show for `C[C@H](CO)N1C[C@H](C)[C@@H](CN(C)Cc2ccccc2C(=O)O)Oc2ncc(C3=CCCCC3)cc2C1=O`?
FGF22 binding: inactive; AF4-AF9 inh: 0.0

How did CCC(=O)N1C[C@@H]2[C@H](c3ccccc31)[C@H](CO)N2C(=O)CC do in these assays?
FGF22 binding: inactive; AF4-AF9 inh: -1.0

Results for C[C@@H]1CN([C@@H](C)CO)C(=O)c2cc(C#CCC3CCCC3)cnc2O[C@H]1CN(C)CC1CCOCC1 ?
FGF22 binding: inactive; AF4-AF9 inh: 6.0

Results for O=C(C[C@@H]1CC[C@H]2[C@@H](COC[C@H](O)CN2C(=O)Nc2ccc(C(F)(F)F)cc2)O1)NCCc1ccncc1 ?
FGF22 binding: inactive; AF4-AF9 inh: -0.5

Results for CC(C)C(=O)Nc1ccc2c(c1)C(=O)N(C)[C@@H]1CC[C@H](CC(=O)O)O[C@@H]1CO2 ?
FGF22 binding: inactive; AF4-AF9 inh: -0.3

Results for CCCN(C)C[C@H]1Oc2cc(C#CC(C)C)ccc2S(=O)(=O)N([C@@H](C)CO)C[C@H]1C ?
FGF22 binding: inactive; AF4-AF9 inh: 4.2

Results for C[C@H]1CN([C@@H](C)CO)C(=O)Cc2cc(NC(=O)C3CCCCC3)ccc2O[C@H]1CN(C)C(=O)Nc1ccc(C(F)(F)F)cc1 ?
FGF22 binding: inactive; AF4-AF9 inh: -1.2

How did CN1C(=O)c2cc(NC(=O)C3CCOCC3)ccc2OC[C@@H]2O[C@H](CC(=O)NCC3CCCCC3)CC[C@H]21 do in these assays?
FGF22 binding: inactive; AF4-AF9 inh: -1.1

How did C[C@H]1CN([C@@H](C)CO)C(=O)c2cc(C#Cc3cccnc3)cnc2O[C@@H]1CN(C)C(=O)CN(C)C do in these assays?
FGF22 binding: inactive; AF4-AF9 inh: -3.7

What do the screens show for `CCCC(=O)N1CC2(C1)CN(C(=O)C1CCC1)[C@@H](CO)c1[nH]c3cc(OC)ccc3c12`?
FGF22 binding: inactive; AF4-AF9 inh: 4.5

Results for O=C(NCC[C@H]1CC[C@@H](NS(=O)(=O)Cc2ccccc2)[C@H](CO)O1)C1CCCC1 ?
FGF22 binding: inactive; AF4-AF9 inh: -0.3

What do the screens show for `C[C@H](CO)N1C[C@H](C)[C@H](CN(C)S(=O)(=O)c2ccc(Cl)cc2)Oc2ccc(NS(=O)(=O)c3ccc(Cl)cc3)cc2C1=O`?
FGF22 binding: inactive; AF4-AF9 inh: -1.9

How did C[C@@H]1CN([C@H](C)CO)C(=O)c2cc(NC(=O)Nc3ccccc3)ccc2O[C@@H](C)CCCCO[C@H]1CN(C)C do in these assays?
FGF22 binding: inactive; AF4-AF9 inh: 3.2

What do the screens show for `CC(C)NC(=O)N1[C@@H]2Cn3c(cccc3=O)[C@H]1[C@@H](C(=O)N1CCC(Cc3ccccc3)CC1)[C@@H]2CO`?
FGF22 binding: inactive; AF4-AF9 inh: inconclusive

Results for C/C=C/c1cnc2c(c1)C(=O)N([C@@H](C)CO)C[C@@H](C)[C@H](CN(C)S(=O)(=O)c1ccc(OC)cc1)O2 ?
FGF22 binding: inactive; AF4-AF9 inh: -0.7

Results for C[C@H](CO)N1C[C@H](C)[C@@H](CN(C)S(=O)(=O)c2ccccc2)Oc2ccc(NC(=O)C3CCCCC3)cc2CC1=O ?
FGF22 binding: inactive; AF4-AF9 inh: -2.5

What do the screens show for `COc1ccc(NC(=O)N(C)C[C@H]2Oc3ccc(NC(=O)Cc4ccccc4)cc3C(=O)N([C@@H](C)CO)C[C@H]2C)cc1`?
FGF22 binding: inactive; AF4-AF9 inh: 1.0

What do the screens show for `C[C@H]1CN([C@@H](C)CO)C(=O)Cc2cc(NC(=O)Nc3ccc(F)cc3)ccc2O[C@@H]1CN(C)Cc1ccc(C(F)(F)F)cc1`?
FGF22 binding: inactive; AF4-AF9 inh: -2.6

How did O=C(Nc1ccc(F)cc1)N[C@@H]1CC[C@@H](CC(=O)N2CCOCC2)O[C@H]1CO do in these assays?
FGF22 binding: inactive; AF4-AF9 inh: 0.1

What do the screens show for `O=C(C[C@@H]1C=C[C@@H](NC(=O)c2ccncc2)[C@H](CO)O1)NCC1CCCCC1`?
FGF22 binding: inactive; AF4-AF9 inh: -0.7

A draw from above in order of length of the SMILES, largest number first:
What do the screens show for `C[C@H]1CN([C@@H](C)CO)C(=O)Cc2cc(NC(=O)Nc3ccc(F)cc3)ccc2O[C@@H]1CN(C)Cc1ccc(C(F)(F)F)cc1`?
FGF22 binding: inactive; AF4-AF9 inh: -2.6

What do the screens show for `COc1ccc(NC(=O)N(C)C[C@H]2Oc3ccc(NC(=O)Cc4ccccc4)cc3C(=O)N([C@@H](C)CO)C[C@H]2C)cc1`?
FGF22 binding: inactive; AF4-AF9 inh: 1.0

Results for C/C=C/c1cnc2c(c1)C(=O)N([C@@H](C)CO)C[C@@H](C)[C@H](CN(C)S(=O)(=O)c1ccc(OC)cc1)O2 ?
FGF22 binding: inactive; AF4-AF9 inh: -0.7

What do the screens show for `CC(C)NC(=O)N1[C@@H]2Cn3c(cccc3=O)[C@H]1[C@@H](C(=O)N1CCC(Cc3ccccc3)CC1)[C@@H]2CO`?
FGF22 binding: inactive; AF4-AF9 inh: inconclusive

What do the screens show for `O=C(C[C@@H]1C=C[C@@H](NC(=O)c2ccncc2)[C@H](CO)O1)NCC1CCCCC1`?
FGF22 binding: inactive; AF4-AF9 inh: -0.7
